BasE inh: blocks the Acinetobacter baumannii siderophore enzyme BasE. inhibition, % (concentration not given with the values). purified BasE, fluorescence polarization binding displacement. 84,000 tested, 0.1% active;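 active means both replicates above 25% with normal brightness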;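 further: 0% = negative plate control signal and 100% = positive plate control signal; stock transfer was 100 nL into about 30 µL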
LANA-nucl inh: inhibitors of KSHV LANA binding to nucleosomes | z-score (concentration not given with the values) | 51,000 tested, 0.3% active | FITC-LANA1-23 / chicken nucleosome fluorescence polarization; stronger effect = lower value | AID 720717;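 active means both repeat wells score below -2 in polarization z-score versus plate sample wells, excluding overly bright wells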;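 further: 100 nL library stock added to about 30 µL; numbers are from one replicate; some results filed as inactive read as strong as hits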
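Material: Purified chicken nucleosomes with FITC-labelled LANA N-terminal peptide (1-23) | Reagent: 50 nM FITC-LANA1-23 probe | Medium: TEN-BT buffer, pH 7.5 | Times: 10–45 min incubation at room temperature | Detection: Fluorescence polarization | Replication: Duplicates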
* = called active by the depositor; / = not tested or not shown; & = joins results of further samples. These rows are one share of the data (hit frequency here may not be typical).

The line under a structure holds: BasE inh	LANA-nucl inh
1: CCOc1ccc(S(=O)(=O)N2CCN(C(=O)C3COc4ccccc4O3)CC2)cc1 (stereo not given)
    0.5	/
2: O=C(/C=C/c1ccco1)Nc1ccc2nn(-c3ccccc3)nc2c1
    -1.7	-0.12
3: COC(=O)c1ccc(CSc2nncn2N)o1
    1.8	/
4: CC1(C)CC2=NN(c3ccccc3)P(=O)(N3CCCc4ccccc43)C2=C(N2CCCC2)C1 (stereo not given)
    0.2	/
5: c1ccc(-n2ncc3c(NC4CCCCC4)ncnc32)cc1
    -1.1	-0.3
6: CC1CN(/C=C(\C#N)S(=O)(=O)c2ccc(Br)cc2)CC(C)O1 (stereo not given)
    -1.1	/
7: N/C(C[n+]1ccccc1)=N\O
    -2.3	/
8: CC(CN=CC1=C(O)CC(C)(C)CC1=O)c1ccccc1 (stereo not given)
    -0.4	1.4
9: CCCOC(=O)CC1C(=O)NCCN1Cc1ccccc1 (stereo not given)
    -3.1	2
10: C=C(C)CC(Nc1ccccc1F)c1ccco1 (stereo not given)
    0.2	/
11: CC1CN(CC(C)C(=O)NN)CC(C)O1 (stereo not given)
    1.7	/
12: CCN1CCN(c2nc3ccccn3c(=O)c2/C=C2\SC(=S)N(CC)C2=O)CC1
    -35	2.1
13: Cc1cc(C(=O)OCn2nnc3ccccc3c2=O)c(C)o1
    1.7	/
14: CCNc1nc(N2CCOCC2)nc(N2CCC(Cc3ccccc3)CC2)n1
    1.0	/
15: COc1ccc(-c2nc(C#N)c(NN3CCOCC3)o2)cc1
    0.1	/
16: CCn1cc(S(=O)(=O)N2CCC3(CC2)OCCO3)cn1
    1.6	-1.6
17: COc1ccc(-n2c(NN)nc3sc4c(c3c2=O)CCC4)cc1
    -1.8	/
18: NC(=O)C1(c2ccccc2)CCCN1C(=O)c1ccc(Br)cc1 (stereo not given)
    3.4	-0.38
19: CNC(=O)C1CCN(S(=O)(=O)c2c(C)noc2/C=C/c2cccc(C)c2)CC1
    1.4	0.57
20: Cc1cc(C)n(/N=C2\CCCc3ccccc32)c(=O)c1C#N
    2.2	/
21: N#Cc1cccc2c1-c1ccccc1C2
    2.7	-0.22
22: O=C1CCCC/C1=N\Nc1ccc(N2CCCCC2)cc1
    0.7	-0.18
23: CCN(C(=O)COc1ccc(Cl)cc1C)c1ccccc1
    0.8	-0.75
24: Cc1cc(-n2c(C)cc(C(=O)OCc3c(Cl)cccc3Cl)c2C)no1
    1.1	/
25: N/C(=N\OC(=O)C1CCCCC1)c1ccccc1
    1.2	-1.1
26: O=C(OCC(=O)N1CCCCC1)c1cc2ccccc2cc1O
    0.3	/
27: Cc1nn(Cc2cccc(C(=O)NN3CCCCC3)c2)c(C)c1Cl
    2.2	0.4
28: Cc1ccc2c(CNC3CCCC3)c(C(=O)O)[nH]c2c1
    1.0	0.057
29: COc1cccc(C2C3=C(CC(C)(C)CC3=O)Nc3ccccc3N2C(C)=O)c1OC (stereo not given)
    -1.6	-0.8
30: NS(=O)(=O)c1ccc(CCNc2ccccn2)cc1
    0.9	/
31: CCn1c(SCC(=O)NC(=O)Nc2ccccc2F)nnc1-c1ccccc1
    -0.6	/
32: CC(=O)N1CCN(CCN=CC2=C(O)CC(c3ccccc3)CC2=O)CC1 (stereo not given)
    1.3	/
33: Cc1cc(C(=O)Oc2ccc(C(=O)c3ccc(F)cc3)cc2)on1
    3.4	/
34: COc1c(Cl)cc(Cl)cc1/C=C(\C#N)C(N)=O
    -1.3	0.58
35: O=C(CCSc1ccccc1)NC1CCCCC1
    1.9	/
36: Cc1ccc(S(=O)(=O)NCCN=Cc2ccc3c(c2)OCO3)cc1
    -0.5	-0.85
37: O=S1(=O)N=C(N2CCCCCC2)c2ccccc21
    1.8	0.13
38: Cc1nnc(N/N=C/C(C)c2ccccc2)[nH]c1=O (stereo not given)
    0.2	0.09
39: Cc1cc(/C=N/n2cnnc2)c(C)n1-c1cccc(I)c1
    2.5	-0.37
40: COC(=O)c1cc(OC(=O)/C=C/c2ccc(C)o2)cc(C(=O)OC)c1
    0.3	/

6 structures out of the list, ordered by molar mass, largest number first.
The line under a structure holds: BasE inh	LANA-nucl inh
32: CC(=O)N1CCN(CCN=CC2=C(O)CC(c3ccccc3)CC2=O)CC1 (stereo not given)
    1.3	/
40: COC(=O)c1cc(OC(=O)/C=C/c2ccc(C)o2)cc(C(=O)OC)c1
    0.3	/
33: Cc1cc(C(=O)Oc2ccc(C(=O)c3ccc(F)cc3)cc2)on1
    3.4	/
37: O=S1(=O)N=C(N2CCCCCC2)c2ccccc21
    1.8	0.13
35: O=C(CCSc1ccccc1)NC1CCCCC1
    1.9	/
38: Cc1nnc(N/N=C/C(C)c2ccccc2)[nH]c1=O (stereo not given)
    0.2	0.09

Additional results.
The line under a structure holds: BasE inh	LANA-nucl inh
41: CCCSc1nnc(/N=C/N(C)C)s1
    /	-0.45
42: CC(=O)n1c(O)c(C2=NC(=S)NC2=O)c2ccccc21
    1.1	-0.096
43: O=C(Nc1nnc2n1CCCS2)c1ccccc1
    0.4	1.8
44: C=CCc1c(C)nc(SC)nc1Nc1ccc(OC)cc1
    -0.6	-0.68
45: CC1(CC(=O)Nc2ccccc2)NC(=S)N(c2ccccc2)N1 (stereo not given)
    1.7	-1.9
46: CC1CCN(C(=O)COc2ccccc2C#N)CC1
    -1.0	0.38
47: C/C(=N/N1CCN(c2ccccc2)CC1)c1ccccc1
    1.5	0.075
48: Cc1nc2c(c(C)c1CCC(=O)Nc1ccc(OC(F)(F)F)cc1)c(=O)n(C)c(=O)n2C
    1.4	-1.3
49: Cc1cc(=O)n2c(n1)-c1ccccc1C2
    0.7	/
50: CN(C)C(=O)CSCc1c(Cl)cccc1Cl
    2.3	/
51: CCC(C)c1ccccc1NC(=O)C(C)NC(C)=O (stereo not given)
    0.2	/
52: CCn1c(=O)c(C(=O)CSc2nnnn2C2CC2)c(N)n(Cc2ccccc2)c1=O
    0.1	/
53: CCCOC(=O)CC1C(=O)NCCN1C(=S)NC(=O)Cc1ccc(Cl)cc1 (stereo not given)
    -3.0	0.58
54: COc1ccc(-c2nnc(SCC(=O)N/N=C/c3ccco3)n2-c2ccccc2)cc1OC
    -3.2	0.25
55: CC(C)OC(=O)c1sc2nc3c(cc2c1N)CN(C(C)C)CC3
    -1.9	0.73
56: O=C(O)CCCc1nc(-c2cnc3n(c2=O)CCS3)no1
    1.8	/
57: O=C(Nc1cccc(C(F)(F)F)c1)c1cc[n+]([O-])cc1
    3.0	/
58: Nc1nc(SCC(=O)N2CCCC2)[nH]c(=O)c1NC(=O)c1cccs1
    0.4	0.073
59: CC(CC(=O)O)n1ccnc1 (stereo not given)
    1.9	-0.64
60: C=C(C)CNc1nc(-c2ccccc2)c(-c2ccccc2)s1
    3.0	/
61: O=C(CSc1ncnc2sccc12)N(Cc1cccs1)c1ccc2c(c1)OCCO2
    0.4	/
62: CC(=O)Nc1ccc(-c2cn3ccccc3n2)cc1
    -2.7	-0.022
63: c1ccc2nc3c(nc2c1)Nn1cnnc1S3
    8.9	-1.4
64: COC(=O)c1c(NC(=O)C2CC2)sc(C)c1C
    -0.6	-0.38
65: O=C(O)/C=C/C(=O)N1CCC(C(=O)c2ccc(F)cc2)CC1
    0.7	-1.5
66: Cc1cccc(NCC(=O)Nc2ccc3c(c2)oc(=O)n3C)c1
    0.2	-0.024
67: COc1ccc(C2CC(c3cccs3)=NN2C(=O)CSc2nnnn2C2CC2)cc1OC (stereo not given)
    6.5	/
68: CC(=O)NC(C1C(=O)CC(C)(C)CC1=O)(C(F)(F)F)C(F)(F)F
    -1.9	1.5
69: Cc1ccc(NC(=O)c2ccc3ncsc3c2)cc1
    1.1	/
70: Cc1cnc(C(=O)OCC(=O)Nc2ccc3c(c2)OCCO3)cn1
    0.3	/

Entries by screen from above.
Nos. 35 to 38 in BasE inh, in turn: 1.9, -0.5, 1.8, 0.2
Nos. 35 to 38 in LANA-nucl inh, in turn: /, -0.85, 0.13, 0.09

Next part:
The line under a structure holds: BasE inh	LANA-nucl inh
71: O=C(CNC(=O)C1CCCCC1)OCn1nnc2ccccc2c1=O
    0.8	/
72: COc1cn(-c2ccccc2)nc1C(=O)NCc1ccccc1CN1CCCC1
    -3.0	/
73: COC(=O)c1ccc(CSCc2ccc(C(=O)OC)o2)o1
    1.1	/
74: Cc1ccc(S(=O)(=O)Nc2cc(Sc3ncn[nH]3)c(O)cc2C)cc1
    0.1	/
75: O=c1[nH]c(=O)n([C@H]2C[C@H](O)[C@@H](CO)O2)cc1I
    /	0.37
76: Cc1csc(=O)n1CCC(=O)OCc1nnc(-c2ccccc2)o1
    -0.2	/
77: COc1ccc(-n2cc(C(=O)NCCCN3CCCC3=O)nn2)cc1
    0.4	0.62
78: CN1c2ccccc2-c2nc3ccccc3n2C1c1cccs1 (stereo not given)
    -3.8	1.7
79: Cn1nnnc1SCSc1nnnn1C
    0.4	-0.25
80: COC(=O)CNC(=O)c1ccc(NC(=O)Nc2cccc(C)c2)cc1
    1.7	/
81: CCn1c(-c2cc(C(=O)c3ccccc3O)c[nH]2)nc2ccccc21
    -36	/
82: CC1CC(NC(=O)c2c(O)nc3ccccn3c2=O)CC(C)(C)C1 (stereo not given)
    -1.2	0.58
83: CC1CCCC(C)N1C(=O)NC1CCCCC1 (stereo not given)
    4.5	-0.0095
84: COc1ccc(CCNC(=O)CC(c2ccccc2)c2cccc(C)c2O)cc1OC (stereo not given)
    -0.1	/
85: CCOC(=O)c1[nH]c(C)c(C(=O)OCc2nc3ccc(Cl)cc3n2CCO)c1C
    -0.5	/
86: C/C(=N\NC(N)=O)c1ccc(-n2ccnc2)cc1
    3.3	/
87: CCOC(=O)CC(=O)c1sc2c(c1N)c(=O)[nH]c(=O)n2-c1ccc(OC)cc1
    4.0	/
88: CCOC(=O)C1=C(C)NC(C)=C(C(=O)OCC)C1C(=O)OCC(=O)N1c2ccccc2CC1C (stereo not given)
    -1.3	/
89: C[C@H](NC(=O)c1ccco1)C(=O)Nc1nc(-c2ccccn2)cs1
    -0.5	/
90: O=C(O)CNC(=O)c1ccc2c(c1)OCO2
    2.9	/
91: COc1cc(/C=c2\sc3nc(-c4ccco4)nn3c2=O)cc(Br)c1OC(C)=O
    2.6	-0.071
92: COC(=O)c1oc2ccc(Cl)cc2c1C
    -2.0	0.33
93: O=C(NC1CCN(Cc2ccccc2)CC1)c1cc(-c2ccco2)nc2ccccc12
    1.6	/
94: Cc1ccc(N/C=C/C(=O)c2ccc(C)o2)c(O)c1
    -7.4	-1.5
95: OC(COc1ccc(Br)cc1)CN1CCOCC1 (stereo not given)
    -1.7	-0.26
96: CC1(C)CC(=O)C2=C(C1)N(Cc1cccnc1)C(=O)NC2(C(F)(F)F)C(F)(F)F
    2.7	-0.078
97: CN1CCN(/N=C/c2ccc(-c3ccccc3)cc2)CC1
    -1.5	/
98: COc1cccc(CNC(=O)c2ccc3nc[nH]c3c2)c1
    -1.6	/
99: Cc1ccc(Oc2ccc3c(c2)C(=O)N(CC(=O)O)C3=O)cc1
    3.2	/
100: Cc1c(Cl)cccc1Nc1ccccc1C(=O)O
    1.8&-0.7	0.001&0.66&-0.82
101: COC(=O)Cc1nc(NC(=O)c2ccc(OC)cc2)sc1C
    -1.1	-0.9
102: CCOCC(=O)Nc1cccc(C(F)(F)F)c1
    -2.6	0.049
103: O=C(NC(=S)Nc1ncccn1)c1cccs1
    0.9	/
104: CCN(/N=C\c1ccccc1O)C(=S)NC
    7.6	-0.6
105: COc1ccc(C(CC(=O)N2CCN(Cc3ccccc3)CC2)n2cccc2)cc1 (stereo not given)
    0.9	-0.24
106: Cc1c(C)c2c(ccc3c(C)cc(=O)oc32)oc1=O
    -2.3	2
107: CCOC(=O)/C(C#N)=C/Nc1nc(CN2CCCCC2)cs1
    -1.9	/
108: CC(=O)NC1(C(F)(F)F)C(=O)Nc2c1c(=O)[nH]c(=O)n2Cc1ccco1 (stereo not given)
    -0.7	-0.64
109: NC(=O)C1CCCN1S(=O)(=O)c1ccc(F)cc1 (stereo not given)
    1.0	0.15
110: O=C1Nc2ccccc2C1c1ncc(C(F)(F)F)cc1Cl (stereo not given)
    /	-0.79
111: NC(=O)NC(=O)Nc1ccc(Cl)cc1
    2.5	0.4
112: CN(C)C(CNC(=O)c1cccc(OC(F)F)c1)c1ccco1 (stereo not given)
    -0.2	/
113: O=C(Cc1n[nH]c(=O)c2ccccc12)NCC1CCCO1 (stereo not given)
    1.9	/
114: COc1ccc(N2C(=O)/C(=C\c3ccco3)N=C2SCc2cc(=O)n3ccsc3n2)cc1Cl
    -3.4	/
115: CCOC(=O)N1CCN(C(=S)Nc2cc(OC)c(OC)cc2C(=O)OC)CC1
    0.6	-1.6
116: CC12CC(c3ccccc3O1)C(C(=O)NCc1ccccc1)C(=O)N2 (stereo not given)
    -2.4	0.86
117: O=C(/C=C/c1ccco1)N1CC=C(c2ccccc2)CC1
    1.1	/
118: O=CNc1ccc(OC(=O)c2cncc(Br)c2)cc1
    0.8	/
119: CC1=C(c2ccc(Cl)cc2)S(=O)(=O)N=C1N1CCC(C(=O)NC2CCCC2)CC1
    -2.6	-0.36
120: CCC1(C)N=C(c2ccccc2)C(=S)N1 (stereo not given)
    -0.6	1
121: COc1ccc(C(NC(=O)CSc2nncn2C(C)C)c2ccccc2)cc1 (stereo not given)
    0.4	/

From PubChem BioAssay
